AID504770 – E. coli YBA685 growth inhibition, screen for V. cholerae RctB inhibitors; E. coli YBA685 rctB-dependent plasmid, OD600 growth, 3 h; hits give low values; z-score (test concentration not listed); 130,000 compounds, 0.27% hits; AID 504770;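 active = z-score under -2 on both plates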;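 also: wells of about 30 µL received 100 nL stock; score is relative to mean and SD of the test wells; the first replicate is given; strong numbers were not always called active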
CapD inh – CapD enzyme inhibition | purified CapD enzyme, fluorescence intensity read-out; hits give low values; some hits fall short of the stated cut | z-score (no concentration beside the values) | 140,000 compounds, 0.23% hits;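 active = z-score under -4 in either of two replicates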;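 also: stock transfer was 100 nL into about 40 µL; score is relative to mean and spread of the plate; one replicate is shown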
* hit, by the source's call; nt = no result given; & = joins results of further samples. Rows are unselected. Share with any hit: about 0.37%.

Screens in order: AID504770, CapD inh
COc1ccc(C2CC(SCC(=O)c3ccccc3)=Nc3ncnn32)cc1 (configuration not stated)
→ -0.55, 2
CSc1nnc(SCC(=O)N2CCC(C(F)(F)F)CC2)s1
→ -0.4, 0.27
O=C(Cn1cc(C(=O)C2CC2)c2ccccc21)NC1CCCC1
→ 0.65, 0.9
CCOC(=O)c1sc(SC)c(S(=O)(=O)C(C)C)c1N
→ nt, -0.78
CN1C(=O)CC[C@H]1c1cccnc1
→ -0.15, -0.025&1.1
Cc1ccc(N2CCN(C(=O)OCC#Cc3ccccc3)CC2)c(C)c1
→ nt, 0.26
Cc1ccccc1NC(=O)C1CC(=O)OC1(C)C (configuration not stated)
→ -0.3, 0.26
Cc1ccc(NC(=O)c2ccc(S(=O)(=O)N3CCCC3)cc2)cc1
→ 0.45, 0.36
Clc1ccc(C2=NC(c3ccccc3)N=C(c3ccc(Cl)cc3)S2)cc1
→ nt, 4.8
O=C(C(=O)c1ccc(-c2nc3ccccc3nc2-c2ccc(C(=O)C(=O)c3ccccc3)cc2)cc1)c1ccccc1
→ nt, -0.11
O=C(CCN1CCCC1)c1ccc2ccccc2c1
→ nt, 28
COc1cc(-c2nc3sc4c(c3c(=O)[nH]2)CCCC4)ccc1OC(=O)c1ccc(Cl)cc1
→ nt, 0.89
O=S(=O)(c1cc(C(F)(F)F)cc(C(F)(F)F)c1)N1CCN(C(c2ccccc2)c2ccccc2)CC1
→ nt, 0.22
COC(=O)c1cc(OC)c(OC)cc1NC(=O)c1cnc(N(C)C)nc1C(F)(F)F
→ -0.85, 0.14
O=C(CSC1CC(=O)N(c2ccccc2)C1=O)Nc1ccc(Cl)cc1 (configuration not stated)
→ -0.6, -0.71
CCC(=O)N1CCN=C1SCc1ccccc1
→ 0.7, nt
COc1ccccc1CN1C(=O)NC2(CCOc3ccccc32)C1=O (configuration not stated)
→ -0.45, nt
CN1CCN(Cc2cc(Br)cs2)CC1
→ -0.05, 0.2
CC(=O)Nc1c(C)[nH]n(-c2ccccc2)c1=O
→ 0.2, -0.54
CN1c2ccsc2C(O)=C(C(=S)Nc2ccccc2)S1(=O)=O
→ nt, -1.5
O=C(Nc1cccc(O)c1)C1CCCN1C(=O)OCc1ccccc1 (configuration not stated)
→ 0.3, 0.12
CN(C(=O)CSc1nc(-c2ccccc2)cn1N)C1CCS(=O)(=O)C1 (configuration not stated)
→ 1.5, nt
CC(C)(C)C1=C(C#N)C(c2cccs2)C(C#N)=C(NC(=O)NC(=O)c2c(F)cccc2Cl)O1 (configuration not stated)
→ -0.65, 0.08
CN1C(=O)N(C)c2cccc3cccc1c23
→ 1.3, 0.23
Cc1cccc(N2CCN(c3ncnc4c3cnn4-c3ccccc3)CC2)c1C
→ nt, -0.53
N#Cc1c(N2CCCC2)oc2nc3ccccc3nc12
→ 1.8, nt
CN1C(=O)C2(NC(=O)c3ccccc3O2)c2ccccc21 (configuration not stated)
→ -0.35, nt
CN(C)c1ccc(CN2CCC(NC(=O)OCc3ccc(C#Cc4ccccc4)s3)C2)c2ccccc12 (configuration not stated)
→ nt, 43
CCN1CCN(Cc2cc(C(C)(C)C)c(O)c(C(C)(C)C)c2)CC1
→ -0.5, -0.16
COCCNC(=O)c1cc2c(=O)[nH]c3ccccc3c2s1
→ 0.25, 74

Arranged by SMILES length (highest first): some entries from above
Screens in order: AID504770, CapD inh
COc1cc(-c2nc3sc4c(c3c(=O)[nH]2)CCCC4)ccc1OC(=O)c1ccc(Cl)cc1
→ nt, 0.89
COCCNC(=O)c1cc2c(=O)[nH]c3ccccc3c2s1
→ 0.25, 74
O=C(CCN1CCCC1)c1ccc2ccccc2c1
→ nt, 28

(more compounds)
Screens in order: AID504770, CapD inh
Cc1ccccc1C(O)(C(=O)NN(C(=O)c1ccc(Br)o1)c1ccccc1)c1ccccc1C
→ nt, -0.45
O=C(NCC1CCCO1)c1cccc(N2C(=O)C3C4C=CC(C4)C3C2=O)c1 (configuration not stated)
→ 1.9, -0.07
C/C(=N\NC=O)c1ccccn1
→ 1.6, nt
Brc1c(Oc2ccccc2)ncnc1Oc1ccccc1
→ -0.1, -0.12
COc1ccc(CNCc2ccc(C)cc2)cc1
→ 1.1, -0.03
CCOC(=O)c1cnn(-c2ccccc2)c1-c1ccncc1
→ -0.45, -0.17
O=C(c1ccccc1N1C(=O)c2cccc3cccc(c23)C1=O)N1CCOCC1
→ -0.4, nt
CNC(=S)N/N=C(\C)c1ccc(OC)cc1
→ nt, -1.1
CC(=O)OCc1ccc(/C=C/C(=O)O)o1
→ -0.3, nt
COc1cc(/C=C2/NC(=O)NC2=O)cc(Cl)c1OCc1cccc(C(=O)O)c1
→ nt, 6.7
CCOc1cc(C=C2C(=O)NC(=O)NC2=O)cc(Cl)c1OS(=O)(=O)c1ccccc1
→ nt, -0.01
O=C(COc1ccc(Cl)cc1Cl)N(Cc1cccs1)C1CCS(=O)(=O)C1 (configuration not stated)
→ -0.15, -0.11
CCc1c(C)c(C#N)c2nc3ccccc3n2c1Nc1ccc(F)cc1
→ nt, 11
Cc1c2cnn(CC(=O)NCCCN3CCOCC3)c(=O)c2c(C)n1Cc1ccccc1F
→ 0.35, 2.4
Fc1cc(Br)ccc1NC(=S)Nc1ccc2nccnc2c1
→ nt, -0.26
O=C(CCN1C(=O)C2C3C=CC(C3)C2C1=O)Nc1nccs1 (configuration not stated)
→ nt, -0.09
O=C(/C=C/c1ccco1)N1CCN(S(=O)(=O)c2ccccc2)CC1
→ -0.45, nt
N/C(=N\O)c1ccc(OCc2ccc(Cl)cc2)cc1
→ nt, -1.1
CCN1C(=O)Cc2cc(S(=O)(=O)N3CCOCC3)ccc21
→ 0.45, nt
COc1ccc(Cl)cc1NC(=O)CC(=O)Nc1ccc2nc3n(c(=O)c2c1)CCCCC3
→ -2, 3.9
CC(=O)Nc1ccc(NC(=O)COc2ccc(C)cc2)cc1
→ -0.5, 0.36
CCN(c1cccc(C)c1)S(=O)(=O)c1c(C)[nH]c(=O)[nH]c1=O
→ -0.8, 1.1
O=C(COc1ccccc1)Nc1ccccc1N1CCCC1
→ 1.2, nt
CCN(C(=O)CSc1nc2ccncc2[nH]1)c1cccc(C)c1
→ -0.05, -0.83
O=c1[nH]c(CSCc2ccccc2)nc2c1C1(CCCC1)Cc1ccccc1-2
→ nt, 0.31
CC(C)Cn1c(O)c(Nc2ccc3c(c2)=NC(=O)N=3)c2ccccc21
→ 0.25, nt
CCn1c(C(=O)N2CCC(C(=O)NC3CCCCCC3)CC2)cc2sccc21
→ 0.1, 0.01
CC(=NCc1cccnc1)c1c(C)[nH]n(-c2nc3ccccc3s2)c1=O
→ -0.15, nt
O=C(CCS(=O)(=O)c1cccc2nonc12)N1CCN(C(c2ccccc2)c2ccc(Cl)cc2)CC1 (configuration not stated)
→ 0.2, 0.16
OC(Cn1cnc2ccccc21)Cn1c2ccccc2c2ccccc21 (configuration not stated)
→ 0.35, 8.5
CC1=C(C#N)C(c2cc(F)ccc2F)C(C(=O)OCc2ccccc2)=C(N)O1 (configuration not stated)
→ 0.2, 0.23
CNC(=O)c1cccn(Cc2cc(C(F)(F)F)cc(C(F)(F)F)c2)c1=O
→ nt, 68
COc1cc(C=C2C(=O)NC(=O)NC2=O)ccc1OS(=O)(=O)c1ccccc1[N+](=O)[O-]
→ nt, -0.56
C/C(=N\O)c1ccc2c(c1)CCO2
→ -1.2, 0.46
C(=N\N1CCOCC1)/c1ccccn1
→ 0.9, nt
CCOC(=O)c1cc(CC)sc1NC(=O)CC#N
→ -0.4, 1.8
Cc1ccc2oc(-c3ccccc3)cc(=O)c2c1
→ -0.3, 2.2
Nc1nonc1OCc1ccc2c(c1)OCO2
→ -0.95, 0.29
CCOC(=O)C1CCCN(Cc2nc(N)nc(Nc3ccc(Cl)cc3)n2)C1 (configuration not stated)
→ 1.1, -0.48
Nc1ncnc2c1c1nc3ccccc3nc1n2Cc1ccccc1
→ 0.25, 0.8
Cc1occc1C(=O)N/N=C/C1CCCCC1
→ 0.85, -0.48
CSc1ccc(CCNC(=O)c2oc3cc4sc(N(C)C)nc4cc3c2C)cc1
→ -0.65, 48
O=C(NCc1ccco1)c1cc(-c2ccc(Cl)cc2)oc1C(F)(F)F
→ 1.6, 0.4
Cc1nn(CCC(=O)NC2CCCC2)c(=O)c2nn(-c3ccccc3)c(C)c12
→ 1.2, 0.18
COc1ccc(S(=O)(=O)N2CCC(n3c(=O)[nH]c4ccccc43)CC2)cc1
→ 0.85, 0.11
CC(C)CC(=O)Nc1cccn(Cc2c(Cl)cccc2Cl)c1=O
→ nt, 1.2
O=C(CO)Nc1c(-c2ccccc2)c2cc(Br)ccc2[nH]c1=O
→ -0.8, -0.33
O=C1c2ccccc2C(=O)c2c1ccc(O)c2O
→ 0.5, nt
O=C1C=C(c2ccccc2)C[C@H](c2cccs2)[C@H]1n1cncn1
→ nt, 5.9
Nc1nc(-c2ccncc2)nc2c1cnn2-c1ccccc1
→ 0.4, 92
CCOC(=O)c1cc2c(s1)-c1c(C)cccc1OC2
→ -0.05, 69
CC1CN(c2c3c(c(C#N)c4nc5ccccc5n24)CCC3)CC(C)O1 (configuration not stated)
→ nt, -0.2
O=[N+]([O-])c1ccc(-c2nc(N3CCOCC3)c3ccccc3n2)cc1
→ nt, -0.43
CC(=O)NC(C(=O)NNc1c(Cl)cc(Cl)cc1Cl)C(C)C (configuration not stated)
→ -0.05, nt
Cc1nnc(NC(=O)CSc2ncccn2)s1
→ -0.6, nt
COc1ccc(N2CCC(CNC(=O)Nc3ccccc3)C2)cc1 (configuration not stated)
→ -0.5, 0.29
COc1ccc2c(C)nc(Nc3nc(-c4ccccc4)cc(=O)[nH]3)nc2c1
→ nt, -0.03
CCOC(=O)C1CCN(C(=O)C2CCCCC2)CC1
→ 0.35, 0.88
O=C(NCCc1cccc(F)c1)OCCCc1ccccc1
→ nt, 0.64
CCN1CCCc2cc(CN(CCN3CCOCC3)C(=S)Nc3c(C)cc(C)cc3C)ccc21
→ 2, -0.23

Taken from above.
COc1ccc(N2CCC(CNC(=O)Nc3ccccc3)C2)cc1 (configuration not stated) in CapD inh is entered as 0.29
CCOC(=O)c1cc2c(s1)-c1c(C)cccc1OC2 in CapD inh is entered as 69

Remaining list, next part.
compound | AID504770 | CapD inh
CC(=O)Nc1c(C)sc(C)c1C(=O)O | 1.4 | -0.42
Cc1ccc(SCc2cc(=O)n3[nH]cnc3n2)cc1 | -0.95 | -0.055
COc1ccc(N(C)C(=O)C2CCN(S(=O)(=O)c3cccc4nsnc34)CC2)cc1 | -0.5 | 0.45
N#CCCC1CCCC/C1=N\Nc1ccc([N+](=O)[O-])cc1[N+](=O)[O-] (configuration not stated) | nt | 0.035
Cn1c(-c2ccccc2)c(C(=O)CC#N)c2ccccc21 | -0.8 | 2.7
CN(C)CCC(O)c1ccc(S(C)(=O)=O)cc1 (configuration not stated) | nt | -0.31
COc1cccc(-c2cn3c4c(=O)n(C)c(=O)n(C)c4nc3n2-c2ccccc2)c1 | nt | -0.33
CS(=O)(=O)c1ccc(Cl)c(NC(=O)CN2CCc3sccc3C2c2cccs2)c1 (configuration not stated) | 0.1 | nt
COc1cc(C(F)(F)F)c(C(=O)N(C)Cc2cc(Cl)cc(Cl)c2)cn1 | -0.15 | 0.46
CCC(=O)Nc1ccc2c(c1)ncn2-c1ccccc1 | -0.8 | nt
CCC(=O)Nc1cccc(-c2nc3ccccc3[nH]2)c1C | -0.35 | nt
CCC(=O)N(c1nnc(SCC(=O)c2c(N)n(C)c(=O)[nH]c2=O)s1)C1CC1 | 0.2 | nt
COC(=O)C1CC(OCc2ccccc2)CN1S(=O)(=O)c1ccc(OC)cc1 (configuration not stated) | nt | 0.79
CCCCn1[nH]c(-c2ccccc2)cc1=O | 0.05 | nt
C=C1OC(=O)OC1(C)CCc1ccccc1 (configuration not stated) | -0.1 | 0.12
COc1ccc(CCN2CC(C#N)=C3c4cc(OC)c(OC)cc4CCN3C2)cc1OC | -0.85 | -1
CCOc1ccc(C=C2c3cc([N+](=O)[O-])cc([N+](=O)[O-])c3-c3c2cc([N+](=O)[O-])cc3[N+](=O)[O-])cc1 | nt | -0.53
Cc1cccc(-c2nc3scc(CCNC(=O)C(C)(C)C)n3n2)c1 | 0.75 | nt
Cc1nc(N2CCOCC2)c2c(C)c(C(=O)Nc3ccccc3Cl)sc2n1 | nt | -0.81
COc1cccc2cc(C(=O)C3=C(O)C(=O)N(CCCN4CCOCC4)C3c3ccc(C)cc3)oc12 (configuration not stated) | 1.1 | 0.52
CN(C)c1cccc(N(C)C)c1CNC(=O)Nc1ccc(Cl)cc1 | 0.1 | 0.38
O=c1c2sc(-c3ccccc3)cc2nc2n1CCCCC2 | nt | 0.48
COC(=O)c1cccc(N(C)c2nc(C)cc(C)n2)c1 | nt | 0.87
C=C(C)CN(CC)c1nc(N)c2c(N)nc3c(c2c1C#N)CC(=O)N3C12CC3CC(CC(C3)C1)C2 | 1 | nt
CCOc1ccc(C2C(C(=O)Nc3ccc(Br)cn3)=C(C)NC3=C2C(=O)CCC3)cc1 (configuration not stated) | nt | 58
CC1=C(C(=O)OC2CC(C)CCC2C(C)C)C(c2ccc(Br)cc2)n2nnnc2N1 (configuration not stated) | -0.25 | 0.82
CCOC(=O)C(Sc1nncn1-c1ccccc1C)c1ccccc1 (configuration not stated) | -0.35 | nt
CNC(=O)/C(C#N)=C/c1cn(CCOc2ccccc2)c2ccccc12 | -0.05 | nt
C=CC(=O)N1c2c(C)cccc2-c2c(ssc2=S)C1(C)C | nt | -0.26
NC(=O)CSCc1cc2cccc3c2n(c1=O)CCC3 | nt | 3.2
Cc1ccc(-c2cc(-c3ccccc3)nc(SCC(=O)Nc3ncccn3)c2C#N)cc1 | nt | 0.07
O=C(NC1C2CC3CC(C2)CC1C3)c1cccs1 (configuration not stated) | 1.2 | 0.41

Quoted at random: 3 records from the list.
compound | AID504770 | CapD inh
Cc1cccc(-c2nc3scc(CCNC(=O)C(C)(C)C)n3n2)c1 | 0.75 | nt
COc1cccc2cc(C(=O)C3=C(O)C(=O)N(CCCN4CCOCC4)C3c3ccc(C)cc3)oc12 (configuration not stated) | 1.1 | 0.52
COc1ccc(CCN2CC(C#N)=C3c4cc(OC)c(OC)cc4CCN3C2)cc1OC | -0.85 | -1
